# Source: PubChem (Broad Institute)
# MLL AF4-AF9 inh: blocks AF4 peptide binding to human AF9 | AlphaScreen, biotin-AF4 peptide binding to FLAG-AF9 | AID 651704 | P42568 | actives 0.47% (n = 350,000) | inhibition, % at 10 µM;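 active = every replicate reaching a set inhibition limit, whatever the replicate mean, cut at about 25% in these data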;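 note: 0% = plate neutral control median and 100% = total signal loss; the record names both 10 and 1 µM as test concentration; the first replicate is given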
# Target sequence (P42568 whole entry, looked up): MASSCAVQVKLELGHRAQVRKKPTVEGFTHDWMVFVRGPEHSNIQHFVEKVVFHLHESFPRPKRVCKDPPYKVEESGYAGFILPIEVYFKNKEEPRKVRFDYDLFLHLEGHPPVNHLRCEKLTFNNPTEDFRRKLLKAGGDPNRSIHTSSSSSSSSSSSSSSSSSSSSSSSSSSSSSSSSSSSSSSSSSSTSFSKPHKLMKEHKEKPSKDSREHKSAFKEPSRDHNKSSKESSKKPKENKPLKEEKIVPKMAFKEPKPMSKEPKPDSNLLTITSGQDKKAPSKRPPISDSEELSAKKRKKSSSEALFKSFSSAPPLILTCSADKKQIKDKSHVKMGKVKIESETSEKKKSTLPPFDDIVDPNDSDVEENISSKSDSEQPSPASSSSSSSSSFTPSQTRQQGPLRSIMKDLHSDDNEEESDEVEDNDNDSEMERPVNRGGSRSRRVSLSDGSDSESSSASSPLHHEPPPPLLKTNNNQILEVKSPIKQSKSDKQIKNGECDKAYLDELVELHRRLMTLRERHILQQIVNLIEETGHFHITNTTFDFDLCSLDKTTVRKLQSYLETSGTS
# Ecoli rRNA inh: inhibits bacterial ribosomal RNA function over humanized ribosomes. E. coli WT GFP vs humanized-ribosome RFP mutants, fluorescence, 24 h; active compounds read low; DMSO median 0, no signal -100. GFP signal change (wild-type ribosome), % (no concentration beside the values). actives 1.6% (n = 350,000). AID 720706;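 active = significant combined selectivity score with lowered wild-type GFP, culture density cut under 30%, mutant RFP and density less affected; inactive = any of these conditions unmet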; note: one replicate is shown; some compounds called inactive have numbers as strong as hits
# Ecoli rRNA inh OD600: further read-out of Ecoli rRNA inh, marked with its call; OD600 change, %; measured here: OD600 growth;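 optical density of the mix in the first replicate; 0 = DMSO median and -100 = no signal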
# Ecoli rRNA inh RFP: also measured in Ecoli rRNA inh; calls as there; RFP signal change, %; measured here: RFP humanized mutant strains;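 first replicate; 0 = DMSO median and -100 = no signal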
# Active calls of the source: *. This is a subset (hit frequency here may not be typical).
# Below each compound: MLL AF4-AF9 inh | Ecoli rRNA inh | Ecoli rRNA inh OD600 | Ecoli rRNA inh RFP
1: COc1ccc(S(=O)(=O)Nc2ccc3c(c2)C(=O)N([C@@H](C)CO)C[C@@H](C)[C@@H](CN(C)Cc2ccc(C(F)(F)F)cc2)O3)cc1
    5.8 | -0.8 | -33.5 | 6.5
2: C[C@H]1CN([C@@H](C)CO)C(=O)c2cc(NC(=O)c3ccncc3)ccc2O[C@@H]1CN(C)S(=O)(=O)c1ccccc1
    0.0 | -1.0 | 1.6 | 1.0
3: COc1ncc(-c2cccc3nccn23)c(OC)n1
    0.1 | 7.9 | 5.8 | 3.3
4: Cc1ccc(Cl)cc1-c1cc(C(=O)Nc2ccc(F)cc2)[nH]n1
    -4.0 | -57.6 | -78.1 | -17.2
5: CCC(=O)N1CC(=O)N2[C@H](C1)[C@@H](c1ccc(C#Cc3cccc(OC)c3)cc1)[C@@H]2CO
    -1.2 | -24.5 | -65.8 | 13.6
6: COc1cccc(CN2CC3(CCN(Cc4ccccn4)CC3)c3c([nH]c4cc(OC)ccc34)[C@H]2CO)c1
    7.0 | 3.3 | -4.5 | 6.0
7: CO[C@H]1CN(C)C(=O)c2cc(NS(C)(=O)=O)ccc2OC[C@@H](C)N(C(=O)C2CCOCC2)C[C@H]1C
    1.4 | 2.2 | 9.7 | 0.4
8: c1cc(-c2ccc(N3CCOCC3)cc2)n2cnnc2c1
    -1.7 | 11.9 | 16.1 | -1.6
9: CCc1nc2c(OCC(=O)C(C)(C)C)cccn2c1N(C)C(=O)COc1ccccc1
    -2.1 | 11.3 | 25.0 | 1.5
10: COc1ccc(NC(=O)N2CC3(C2)CN(C(=O)c2cccnc2)[C@H](CO)c2[nH]c4cc(OC)ccc4c23)cc1
    0.1 | -3.1 | 1.3 | -5.7
11: C[C@@H]1CN([C@@H](C)CO)C(=O)c2cc(NC(=O)CCC(F)(F)F)ccc2O[C@@H]1CN(C)S(=O)(=O)c1ccc(Cl)cc1
    -1.2 | -0.2 | -6.4 | -1.4
12: O=C(C[C@@H]1C[C@H]2c3cc(NC(=O)C4CCOCC4)ccc3O[C@H]2[C@@H](CO)O1)NCc1cc(F)ccc1F
    4.6 | -0.4 | 6.4 | -0.8
13: CO[C@@H]1CN(C)C(=O)c2cc(NC(C)=O)ccc2OC[C@@H](C)N(C(=O)c2ccccc2)C[C@@H]1C
    -0.6 | 0.9 | 3.7 | 0.7
14: CCCCCCCCN1C(=O)[C@@H](CC(=O)NCc2ccc(C)o2)C[C@@]2(C(=O)OC)C1=C[C@H](C1CCCC1)O[C@@H]2C
    0.1 | 1.8 | 2.6 | 10.4
15: C/C=C/c1cnc2c(c1)C(=O)N([C@H](C)CO)C[C@H](C)[C@H](CN(C)Cc1ccccc1F)O2
    -8.4 | -0.5 | 1.2 | -1.1
16: COc1ccc(NC(=O)N[C@H]2CC[C@H](CCn3cc(C4(O)CCCC4)nn3)O[C@H]2CO)cc1
    -1.3 | -1.9 | -2.7 | 1.0
17: O=C(c1ccncc1)N1CCCCN2[C@H](CO)[C@H](c3ccc(-c4ccccc4)cc3)[C@H]2C1
    -4.0 | -2.6 | 3.6 | 0.9
18: C[C@@H]1CCCCO[C@@H](CN(C)C(=O)Nc2ccc3c(c2)OCO3)[C@H](C)CN([C@H](C)CO)C(=O)c2cc(NS(=O)(=O)c3ccccc3)ccc2O1
    5.3 | -0.6 | -0.6 | -1.3
19: O=C(C1=NOC2(C1)C(=O)Nc1ccccc12)N1CCOCC1 (configuration not stated)
    -2.1 | 17.1 | 11.7 | 0.8
20: O=C(Nc1cccc(Cl)c1Cl)c1csc([C@@H]2O[C@H](CO)[C@H](O)[C@H](O)[C@H]2O)n1
    -6.6 | 14.2 | 10.9 | 7.0

# Exported with bars between the fields: entries from further up.
No. | SMILES | MLL AF4-AF9 inh | Ecoli rRNA inh | Ecoli rRNA inh OD600 | Ecoli rRNA inh RFP
11 | C[C@@H]1CN([C@@H](C)CO)C(=O)c2cc(NC(=O)CCC(F)(F)F)ccc2O[C@@H]1CN(C)S(=O)(=O)c1ccc(Cl)cc1 | -1.2 | -0.2 | -6.4 | -1.4
12 | O=C(C[C@@H]1C[C@H]2c3cc(NC(=O)C4CCOCC4)ccc3O[C@H]2[C@@H](CO)O1)NCc1cc(F)ccc1F | 4.6 | -0.4 | 6.4 | -0.8
13 | CO[C@@H]1CN(C)C(=O)c2cc(NC(C)=O)ccc2OC[C@@H](C)N(C(=O)c2ccccc2)C[C@@H]1C | -0.6 | 0.9 | 3.7 | 0.7
14 | CCCCCCCCN1C(=O)[C@@H](CC(=O)NCc2ccc(C)o2)C[C@@]2(C(=O)OC)C1=C[C@H](C1CCCC1)O[C@@H]2C | 0.1 | 1.8 | 2.6 | 10.4
15 | C/C=C/c1cnc2c(c1)C(=O)N([C@H](C)CO)C[C@H](C)[C@H](CN(C)Cc1ccccc1F)O2 | -8.4 | -0.5 | 1.2 | -1.1
16 | COc1ccc(NC(=O)N[C@H]2CC[C@H](CCn3cc(C4(O)CCCC4)nn3)O[C@H]2CO)cc1 | -1.3 | -1.9 | -2.7 | 1.0
17 | O=C(c1ccncc1)N1CCCCN2[C@H](CO)[C@H](c3ccc(-c4ccccc4)cc3)[C@H]2C1 | -4.0 | -2.6 | 3.6 | 0.9

# Given tab-delimited: part of the list above
entry	Structure	MLL AF4-AF9 inh	Ecoli rRNA inh	Ecoli rRNA inh OD600	Ecoli rRNA inh RFP
13	CO[C@@H]1CN(C)C(=O)c2cc(NC(C)=O)ccc2OC[C@@H](C)N(C(=O)c2ccccc2)C[C@@H]1C	-0.6	0.9	3.7	0.7
14	CCCCCCCCN1C(=O)[C@@H](CC(=O)NCc2ccc(C)o2)C[C@@]2(C(=O)OC)C1=C[C@H](C1CCCC1)O[C@@H]2C	0.1	1.8	2.6	10.4
15	C/C=C/c1cnc2c(c1)C(=O)N([C@H](C)CO)C[C@H](C)[C@H](CN(C)Cc1ccccc1F)O2	-8.4	-0.5	1.2	-1.1

# The main list resumes, starting two compounds before the break.
# Below each compound: MLL AF4-AF9 inh | Ecoli rRNA inh | Ecoli rRNA inh OD600 | Ecoli rRNA inh RFP
19: O=C(C1=NOC2(C1)C(=O)Nc1ccccc12)N1CCOCC1 (configuration not stated)
    -2.1 | 17.1 | 11.7 | 0.8
20: O=C(Nc1cccc(Cl)c1Cl)c1csc([C@@H]2O[C@H](CO)[C@H](O)[C@H](O)[C@H]2O)n1
    -6.6 | 14.2 | 10.9 | 7.0
21: C[C@H]1CCCCO[C@H](CN(C)C(=O)CCCN(C)C)[C@@H](C)CN([C@@H](C)CO)C(=O)c2cc(NS(C)(=O)=O)ccc2O1
    -3.1 | 5.2 | 9.2 | -0.3
22: CCCNC(=O)[C@H]1[C@H](CO)[C@H]2Cn3c(ccc(-c4ccccc4F)c3=O)[C@@H]1N2C(=O)CC
    -0.5 | 1.7 | 0.3 | -0.3
23: Cc1ccccc1-c1ccc2c(c1)O[C@@H](CN(C)C)[C@H](C)CN([C@@H](C)CO)S2(=O)=O
    4.1 | -0.8 | -8.0 | -1.1
24: COc1ccc(CN(C)C[C@H]2Oc3ccc(NS(=O)(=O)c4ccc(C)cc4)cc3C(=O)N([C@H](C)CO)C[C@@H]2C)cc1
    -3.6 | 1.5 | 5.2 | -0.5
25: COCC(=O)N1C[C@@H]2[C@H](c3ccccc31)[C@@H](CO)N2C(=O)C1CCCCC1
    0.2 | 4.1 | 7.5 | 1.9
26: CCC(=O)N1C[C@@H](C)[C@H](OC)CN(C)C(=O)c2cc(NC(=O)COC)ccc2OC[C@@H]1C
    -3.4 | 2.9 | 1.7 | -0.7
27: O=C(Nc1ccccc1C(F)(F)F)NC1(C(=O)N2CCOCC2)CCCCC1
    2.4 | -30.2 | -52.2 | -7.0
28: Cc1ccc(S(=O)(=O)NCC[C@H]2CC[C@@H](NC(=O)CCN3CCCCC3)[C@H](CO)O2)cc1
    3.0 | 0.6 | 0.9 | 0.5
29: COc1cccc(-c2ccc([C@@H]3[C@@H](CO)N4C(=O)CN(C(=O)C5CCOCC5)C[C@H]34)cc2)c1
    2.6 | -0.1 | 1.6 | -1.1
30: O=C(N[C@H]1CC[C@@H](CCNC(=O)C2CCCCC2)O[C@H]1CO)c1ccccn1
    -1.6 | 3.4 | 0.4 | 1.3
31: CC(=O)N[C@H]1CC[C@H](CCNC(=O)C2CC2)O[C@@H]1CO
    -2.8 | 0.8 | 6.5 | 0.3
32: CCS(=O)(=O)Nc1ccc2c(c1)C(=O)N(C)[C@@H]1CC[C@H](CC(=O)OC)O[C@H]1CO2
    -3.9 | 0.2 | 2.3 | -0.8
33: C[C@H](CO)N1C[C@H](C)[C@@H](CN(C)C(=O)NC2CCCCC2)Oc2ccc(NC(=O)Nc3cccc4ccccc34)cc2CC1=O
    4.1 | -5.5 | -11.7 | -0.2
34: CCC(=O)NC[C@H]1[C@H](c2ccc(C3=CCCC3)cc2)[C@@H](CO)N1C(C)=O
    -0.2 | 1.7 | 1.7 | 0.5
35: CCC(C)CN1C(=O)CSCC1(C)C(=O)Nc1c(C)cccc1C (configuration not stated)
    -0.5 | -3.0 | 2.4 | -1.1
36: CC(C)C#Cc1cnc2c(c1)C(=O)N([C@@H](C)CO)C[C@H](C)[C@H](CN(C)C(=O)Nc1ccc(F)cc1)O2
    0.5 | -2.7 | -10.5 | 1.0
